Yeast UUG start – yeast start codon fidelity modulation; S. cerevisiae UUG-firefly luciferase reporter, luminescence/redox ratio; activity score, % at 18.7 µM; 0.13% of 350,000 active; AID 602363;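 active = replicate mean at a twofold rise or more, about +100% in these data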;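 note: firefly luciferase made from a UUG start codon reports start codon fidelity; reporter light over untreated wells divided by growth signal over untreated wells; some hits fall short of that in this replicate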
Numbers without * were called inactive. Some of the compounds tested; count on the stated rates, not on these rows.

SMILES	Yeast UUG start
C/C=C/c1ccc([C@H]2[C@H](CO)N(C(=O)CC)[C@H]2CNC(=O)C2CC2)cc1	1
CC(=O)Nc1ccc2c(c1)C(=O)N(C)[C@@H]1CC[C@H](CC(=O)NCc3ccc(Cl)cc3)O[C@H]1CO2	6
COc1ccc(C#Cc2ccc([C@@H]3[C@H]4CN(C(=O)Nc5ccccc5)CCCCN4[C@H]3CO)cc2)cc1	-1
C[C@@H]1CN([C@@H](C)CO)C(=O)c2cc(NC(=O)Cn3cnnn3)ccc2O[C@@H]1CN(C)Cc1ccc2c(c1)OCO2	-7
CO[C@H]1CN(C)C(=O)c2ccc(NC(=O)c3ccccc3F)cc2OC[C@@H](C)N(C(=O)c2ccccc2F)C[C@@H]1C	11
O=C(c1cccc(F)c1)N1C[C@@H]2[C@H](c3ccccc31)[C@H](CO)N2C(=O)c1ccccn1	24
COc1ccc(NC(=O)N(C)C[C@@H]2Oc3c(NC(=O)C4CCOCC4)cccc3C(=O)N([C@@H](C)CO)C[C@H]2C)cc1	2
O=C(Nc1ccc(-c2ccccc2)cc1)[C@@H]1[C@@H](CO)[C@@H]2Cn3c(cccc3=O)[C@@H]2N1CC1CCOCC1	3
C[C@@H]1CN([C@@H](C)CO)C(=O)c2cc(NC(=O)Cc3cn(C)c4ccccc34)ccc2O[C@H]1CN(C)C	-8
O=C(C[C@H]1CC[C@H]2[C@@H](COC[C@H](O)CN2Cc2cccc(F)c2)O1)NCCc1ccncc1	-22
Cc1noc(C)c1NC(=O)Nc1ccc2c(c1)C(=O)N([C@@H](C)CO)C[C@@H](C)[C@@H](CN(C)Cc1ccncc1)O2	-17
CO[C@@H]1CN(C)C(=O)c2cc(NC(=O)Nc3ccccc3)ccc2OC[C@@H](C)N(C(=O)CN(C)C)C[C@H]1C	-3
COCC(=O)NC[C@@H]1[C@H](c2ccccc2)[C@H](CO)N1C(=O)c1ccccc1	-13
CO[C@H]1CN(C)C(=O)c2cc(NC(=O)c3ccc(F)cc3)ccc2OC[C@@H](C)N(C(C)=O)C[C@H]1C	12
CO[C@@H]1CN(C)C(=O)c2cc(NS(C)(=O)=O)ccc2OC[C@H](C)N(CC2CCCCC2)C[C@H]1C	4
O=C(C1CC1)N1CC[C@H]2[C@H](CO)Nc3ccc(Br)cc3[C@H]21	-9
C[C@@H]1CN([C@@H](C)CO)C(=O)c2cccc(NC(=O)Nc3ccc(F)cc3)c2O[C@H]1CN(C)Cc1ccc(Oc2ccccc2)cc1	1
C[C@H](CO)N1C[C@H](C)[C@H](CN(C)S(=O)(=O)c2ccc(F)cc2)Oc2c(NS(=O)(=O)c3cn(C)cn3)cccc2C1=O	-5
CN1CCCCN2[C@H](CO)[C@@H](c3ccc(-c4ccccc4)cc3)[C@@H]2C1	-5
C[C@@H]1CN([C@@H](C)CO)C(=O)c2cc(NS(C)(=O)=O)ccc2O[C@H]1CN(C)C(=O)Nc1ccc(F)cc1	8
CN1CCN(C(=O)C[C@H]2CC[C@H]3[C@@H](COC[C@H](O)CN3C(=O)c3ccc(F)cc3)O2)CC1	-6
CN1c2ccc(Br)cc2[C@@H]2[C@@H](CCN2C(=O)Nc2cccc(F)c2)[C@@H]1CO	-4
Cc1ccc(S(=O)(=O)N2CC[C@@H]3[C@H]2c2cc(-c4ccccc4F)ccc2N[C@@H]3CO)cc1	6
O=C(CN1CCOCC1)N1CCCCN2[C@H](CO)[C@H](c3ccc(/C=C/c4ccccc4)cc3)[C@H]2C1	-1
COc1ccc(C(=O)N2C[C@@H]3[C@H](c4ccccc42)[C@@H](CO)N3Cc2ccccc2)cc1	0
CN(C)C(=O)c1ccc(-c2ccc3c(c2)[C@H]2[C@H](CCN2S(=O)(=O)c2ccccc2)[C@H](CO)N3)cc1	-3
Cc1ccccc1S(=O)(=O)N1CCCCN2[C@@H](CO)[C@H](c3ccc(C#CCN(C)C)cc3)[C@@H]2C1	3
C/C=C/c1ccc([C@H]2[C@@H](CN(C)C(=O)CC)N(C(=O)NC(C)C)[C@H]2CO)cc1	-8
CCC(=O)N1CCCCN2[C@@H](CO)[C@H](c3ccc(-c4cccnc4)cc3)[C@@H]2C1	-20
COc1ccc(NC(=O)N2CC[C@@H]3[C@@H](CO)N(C)c4ccc(-c5ccccc5F)cc4[C@@H]32)cc1	-3

Arranged by the number under Yeast UUG start (ascending): some entries from above
SMILES	Yeast UUG start
C[C@@H]1CN([C@@H](C)CO)C(=O)c2cc(NC(=O)Cn3cnnn3)ccc2O[C@@H]1CN(C)Cc1ccc2c(c1)OCO2	-7
CN1CCN(C(=O)C[C@H]2CC[C@H]3[C@@H](COC[C@H](O)CN3C(=O)c3ccc(F)cc3)O2)CC1	-6
COc1ccc(NC(=O)N2CC[C@@H]3[C@@H](CO)N(C)c4ccc(-c5ccccc5F)cc4[C@@H]32)cc1	-3
COc1ccc(C(=O)N2C[C@@H]3[C@H](c4ccccc42)[C@@H](CO)N3Cc2ccccc2)cc1	0
COc1ccc(NC(=O)N(C)C[C@@H]2Oc3c(NC(=O)C4CCOCC4)cccc3C(=O)N([C@@H](C)CO)C[C@H]2C)cc1	2

Remaining list, next part
SMILES	Yeast UUG start
CO[C@H]1CN(C)C(=O)c2ccc(NC(C)=O)cc2OC[C@@H](C)N(CC2CCCCC2)C[C@H]1C	-1
C[C@@H]1CN([C@@H](C)CO)C(=O)Cc2cc(NS(=O)(=O)c3ccc(Cl)cc3)ccc2O[C@@H]1CN(C)C(=O)Nc1ccccc1	15
CCCC#Cc1ccc([C@@H]2[C@@H](CO)N3CCCCN(CC4CCOCC4)C[C@@H]23)cc1	10
Cc1ccc(S(=O)(=O)N2C[C@H](O)COC[C@@H]3O[C@@H](CC(=O)N[C@H]4CCN(Cc5ccccc5)C4)CC[C@H]32)cc1	-5
COc1ccc(NC(=O)N2C[C@@H]3[C@H](c4ccccc42)[C@H](CO)N3C(=O)C2CCCCC2)cc1	18
COc1ccc(CN(C)C[C@@H]2Oc3c(NC(=O)Nc4ccc(C(F)(F)F)cc4)cccc3C(=O)N([C@H](C)CO)C[C@@H]2C)cc1	7
C[C@@H]1CN([C@@H](C)CO)C(=O)c2cc(N(C)C)ccc2O[C@H]1CN(C)C(=O)Nc1ccc(C(F)(F)F)cc1	17
CCC(=O)Nc1ccc2c(c1)OC[C@@H](C)N(Cc1cncnc1)C[C@@H](C)[C@@H](OC)CN(C)C2=O	-21
CO[C@H]1CN(C)C(=O)c2ccc(NC(=O)c3nc4ccccc4s3)cc2OC[C@@H](C)N(Cc2ccncc2)C[C@H]1C	140*
C[C@@H]1CN([C@H](C)CO)C(=O)c2c(c3ccccc3n2C)-c2ccccc2CO[C@@H]1CN(C)S(=O)(=O)c1ccc(Cl)cc1	-11

Copied from the list.
`C[C@@H]1CN([C@@H](C)CO)C(=O)c2cc(N(C)C)ccc2O[C@H]1CN(C)C(=O)Nc1ccc(C(F)(F)F)cc1` @ Yeast UUG start: 17
`C[C@@H]1CN([C@H](C)CO)C(=O)c2c(c3ccccc3n2C)-c2ccccc2CO[C@@H]1CN(C)S(=O)(=O)c1ccc(Cl)cc1` @ Yeast UUG start: -11

Additional results follow:
SMILES	Yeast UUG start
CO[C@H]1CN(C)C(=O)c2ccc(NC(C)=O)cc2OC[C@H](C)NC[C@H]1C	5
COCC(=O)N1C[C@H]2[C@@H](c3ccccc31)[C@@H](CO)N2C(=O)Nc1ccccc1Cl	18
CC(C)NC(=O)N(C)C[C@@H]1Oc2ccc(NC(=O)CCC(F)(F)F)cc2C(=O)N([C@H](C)CO)C[C@H]1C	18
O=C(Nc1cccc(F)c1)N1CCCCN2[C@H](CO)[C@@H](c3ccc(-c4ccncc4)cc3)[C@@H]2C1	-10
C[C@H]1CN([C@@H](C)CO)C(=O)c2cc(NS(=O)(=O)c3ccc(Cl)cc3)ccc2O[C@H]1CN(C)C(=O)Nc1ccc(F)cc1	4
CCCN1C[C@@H](C)[C@H](OC)CN(C)C(=O)c2cc(NC(=O)Nc3c(C)noc3C)ccc2OC[C@H]1C	-6
CC(=O)N1CC[C@@H]2[C@@H](CO)Nc3ccc(-c4ccccc4)cc3[C@@H]21	-13
C[C@H]1CN([C@@H](C)CO)C(=O)Cc2cc(NS(=O)(=O)c3ccccc3)ccc2O[C@@H]1CN(C)C(=O)Nc1ccc(F)cc1	8
C[C@@H]1CN([C@H](C)CO)C(=O)Cc2cc(NC(=O)Nc3ccc(F)cc3)ccc2O[C@@H]1CN(C)C(=O)Nc1ccccc1	-7
CN(C)C(=O)[C@@H]1[C@@H](CO)[C@@H]2Cn3c(ccc(-c4ccccc4)c3=O)[C@@H]2N1Cc1ccccc1	11
CCC(=O)N1CC[C@@H]2[C@H]1c1cc(-c3ccc(F)cc3)ccc1N(C)[C@H]2CO	14
COc1cccc(-c2ccc3c(c2)[C@H]2[C@H](CCN2S(=O)(=O)c2ccccc2C)[C@@H](CO)N3C)c1	-18
COCC(=O)N1CCCCN2[C@@H](CO)[C@@H](c3ccc(-c4ccc(OC)cc4)cc3)[C@@H]2C1	-9
COCC(=O)Nc1ccc2c(c1)C(=O)N(C)[C@@H]1CC[C@H](CC(=O)NCC(F)(F)F)O[C@@H]1CO2	-1
CCC(=O)Nc1ccc2c(c1)C(=O)N(C)C[C@H](OC)[C@@H](C)CN(Cc1ccccc1F)[C@H](C)CO2	-7
CCCNC(=O)N1[C@@H](CO)[C@@H]2c3ccccc3N(C)C[C@@H]21	16
CCCNC(=O)[C@H]1[C@H](CO)[C@H]2Cn3c(cccc3=O)[C@@H]1N2C(=O)C1CC1	-25
CCN1[C@@H]2c3ccc(-c4cccc(F)c4)c(=O)n3C[C@@H]2[C@@H](CO)[C@@H]1C(=O)N[C@H](C)c1ccccc1	11
O=C(c1ccncc1)N1CC[C@@H]2[C@@H](CO)Nc3ccc(Br)cc3[C@@H]21	-6
Cc1cccc(S(=O)(=O)N2C[C@@H]3[C@H](c4ccccc42)[C@@H](CO)N3CC2CCCC2)c1	11

2 of the compounds above, with each value named.
> CCC(=O)N1CC[C@@H]2[C@H]1c1cc(-c3ccc(F)cc3)ccc1N(C)[C@H]2CO
- Yeast UUG start: 14

> COc1cccc(-c2ccc3c(c2)[C@H]2[C@H](CCN2S(=O)(=O)c2ccccc2C)[C@@H](CO)N3C)c1
- Yeast UUG start: -18

Carrying on:
SMILES	Yeast UUG start
CN1C(=O)c2cc(NC(=O)c3cccc(F)c3)ccc2OC[C@@H]2O[C@H](CC(=O)N3CCc4ccccc4C3)CC[C@H]21	-16
COc1ccccc1CN1[C@H](CO)[C@@H]2c3ccccc3N(C(=O)c3ccc(F)cc3)C[C@@H]21	-5
Cc1ccccc1S(=O)(=O)N1CCCCN2[C@H](CO)[C@@H](c3ccc(-c4cccc(F)c4)cc3)[C@@H]2C1	-6
O=C(C1CCOCC1)N1C[C@H]2[C@@H](c3ccccc31)[C@H](CO)N2Cc1ccc(Cl)cc1	3
O=C(C[C@@H]1CC[C@H]2[C@@H](COC[C@H](O)CN2C(=O)Nc2ccccc2)O1)NCCCN1CCOCC1	-9
CO[C@@H]1CN(C)C(=O)c2ccc(NS(=O)(=O)c3ccccc3)cc2OC[C@@H](C)N(C(=O)NC(C)C)C[C@H]1C	11
CCC(=O)Nc1ccc2c(c1)C(=O)N(C)C[C@H](OC)[C@@H](C)CN(CC1CCCCC1)[C@H](C)CO2	25
CC(=O)N1[C@@H]2c3ccc(C4=CCCC4)c(=O)n3C[C@H]1[C@H](CO)[C@H]2C(=O)NC1CCCCC1	22
C[C@@H]1CN([C@H](C)CO)C(=O)c2cc(NC(=O)CCN3CCOCC3)ccc2O[C@H]1CN(C)S(=O)(=O)c1ccc(Cl)cc1	9
CO[C@H]1CN(C)C(=O)c2cc(NS(=O)(=O)c3ccccc3C)ccc2OC[C@H](C)NC[C@@H]1C	12
C[C@@H]1CN([C@@H](C)CO)C(=O)c2cccc(NC(=O)Nc3ccc(C(F)(F)F)cc3)c2O[C@H]1CN(C)S(=O)(=O)c1ccc(Cl)cc1	-11
Cc1ccccc1S(=O)(=O)N(C)C[C@H]1OCc2ccccc2-c2c(n(C)c3ccccc23)C(=O)N([C@@H](C)CO)C[C@H]1C	1
O=C(c1ccc(F)cc1)N1C[C@@H]2[C@H](c3ccccc31)[C@@H](CO)N2Cc1ccc2c(c1)OCO2	-10
N#Cc1cccc(-c2ccc3c(c2)[C@@H]2[C@@H](CCN2S(=O)(=O)c2ccc(F)cc2)[C@H](CO)N3)c1	-14
COc1ccc(-c2ccc3c(c2)[C@H]2[C@H](CCN2S(=O)(=O)c2ccccc2C)[C@H](CO)N3C)cc1	3
CCCN1[C@@H]2c3ccc(C4=CCCC4)c(=O)n3C[C@@H]2[C@@H](CO)[C@@H]1C(=O)NCCCN(C)C	14
COc1ccc(NC(=O)N(C)C[C@@H]2Oc3ccc(NC(=O)Cn4cnnn4)cc3C(=O)N([C@H](C)CO)C[C@@H]2C)cc1	3
CCC(=O)N1[C@H](CO)[C@H](c2ccccc2)[C@H]1CN(C)C(=O)c1ccccc1F	16
C/C=C/c1ccc([C@@H]2[C@@H](CO)N(C(C)=O)[C@H]2CN(C)C(=O)NC2CCCC2)cc1	15
CO[C@H]1CN(C)C(=O)c2ccc(NC(=O)c3nc4ccccc4s3)cc2OC[C@@H](C)N(Cc2cncnc2)C[C@H]1C	-1
COc1ccc(NC(=O)Nc2ccc3c(c2)CC(=O)N([C@H](C)CO)C[C@@H](C)[C@H](CN(C)CC2CC2)O3)cc1	-8
CN1c2ccc(-c3ccccc3F)cc2[C@@H]2[C@@H](CCN2S(=O)(=O)c2ccccc2)[C@@H]1CO	-2
CO[C@@H]1CN(C)C(=O)c2cc(NC(=O)C3CCCCC3)ccc2OC[C@H](C)N(C)C[C@H]1C	-9
COc1cccc(S(=O)(=O)N2CCCCN3[C@H](C2)[C@@H](c2ccc(C#CC(C)C)cc2)[C@@H]3CO)c1	-6
COCC(=O)N1C[C@H]2[C@@H](c3ccccc31)[C@@H](CO)N2Cc1ccccc1Cl	4
CNC[C@H]1Oc2ccc(NC(=O)Cn3cnnn3)cc2C(=O)N([C@H](C)CO)C[C@H]1C	-15
CO[C@@H]1CN(C)C(=O)c2ccc(NC(=O)C3CCOCC3)cc2OC[C@H](C)N(Cc2cccnc2)C[C@H]1C	-2
